Screening data from PubChem BioAssay.
Sa ugtP lethal = compounds lethal to S. aureus RN4220 ugtP deletion mutant | 330,000 compounds, 0.54% hits | growth inhibition, % (test concentration not listed) | OD600 growth, 16 h; some inactives read as strong as hits;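 active means z-score under -3 and OD600 up to 0.15 on both plates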;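 further: plate controls were untreated wells for no effect and antibiotic for full effect; wells of about 80 µL received 100 nL stock; the first replicate is given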
Mtb hypoxia inh = inhibitors of hypoxia-regulated fluorescent reporter in Mycobacterium tuberculosis. fluorescence inhibition, % (concentration not given with the values). M. tuberculosis hypoxia-regulated fluorescent reporter, fluorescence. 300,000 compounds, 0.1% hits. AID 1159583;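 active means 35 to 45% if threefold the growth effect, above 45% if 1.5-fold the growth effect; inactive means the rest, general growth blockers included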;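 further: wells of about 50 µL received 100 nL stock; 0% = vehicle wells and 100% = reference inhibitor wells; whole bacteria with a GFP reporter of the hypoxia response; strong numbers were not always called active; many hits fall short of the cut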
PrP 5UTR inh = inhibition of PrP 5' UTR reporter expression; cell-based PrP 5' UTR mRNA reporter, plate reader; inhibition, % (no concentration beside the values); 340,000 compounds, 0.35% hits; AID 488862;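 active means every replicate at 50% or more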;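 further: 0 = median of the neutral control wells; tested in H4 reporter cells; numbers are from one replicate; inactives centre near -14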
Autofluor counter = counter-screen for toxin protease inhibitors: compound fluorescence. 360,000 compounds, 3.1% hits. fluorescence intensity (no concentration beside the values). compound autofluorescence counterscreen, microsphere flow cytometry; stronger effect = higher value;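 active means at least 3 SD above the mean of all compounds, about 16000 in these data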;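 further: 100 nL of 1 mM stock went into each well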
Sa RN4220 lethal = S. aureus RN4220 growth inhibition. OD600, 16 h. 330,000 compounds, 0.33% hits. AID 1259311. inhibition, % (test concentration not listed);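 active means z-score of -3 or lower and OD600 up to 0.18 on both plates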;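 further: plate controls were untreated cells for no effect and reference antibiotic for full effect; stock transfer was 100 nL into about 80 µL; one replicate is shown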
BJeLR viability = kills HRASV12-expressing BJeLR cells | inhibition, % (no concentration beside the values) | 300,000 compounds, 0.17% hits | AID 1554 | BJeLR (HRASV12) viability, CellTiter-Glo ATP luminescence, 48 h; reference of the scale not given here;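 active means replicate mean above 50%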;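 further: 50 nL library stock added to about 25 µL; numbers are from one replicate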
Mtb hypoxia inh growth = recorded beside Mtb hypoxia inh, whose call it bears; growth inhibition, %; measured here: M. tuberculosis growth (absorbance);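 0% = vehicle and 100% = reference antibiotic; read after six days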
The depositor's hits bear a star; . = not tested or not shown. Outcome played no part in choosing rows; any-hit rate near 4%.

Preview, 12 compounds:
SMILES | Sa ugtP lethal | Mtb hypoxia inh | Mtb hypoxia inh growth | PrP 5UTR inh | Autofluor counter | Sa RN4220 lethal | BJeLR viability
Cc1ccc(S(=O)(=O)N2CCOCC2)cc1NC(=O)CSc1nnc(C2CC2)n1C1CC1 | 8 | 10 | 1 | -17 | 3512 | 1.9 | .
O=C(NS(=O)(=O)c1ccc(Cl)cc1)c1ccccc1 | 2 | -3 | 3 | -9 | 4280 | 4.1 | 3
COC(=O)/C(C#N)=C/c1c(N2CCN(c3cccc(Cl)c3)CC2)nc2c(C)cccn2c1=O | -3 | -6 | 7 | 4 | 4481 | 6.7 | -2
COc1ccc(CN2C(=O)NC3(CCCc4ccccc43)C2=O)cc1F (configuration not stated) | 2 | 17 | 10 | -14 | 2934 | 4.6 | 8
COC(=O)c1ccc(NC(=O)c2cc[n+](Cc3ccccc3)cc2)cc1 | 6 | -6 | 2 | -4 | 3260 | 1.0 | 6
O=C(Nc1ccc([N+](=O)[O-])cc1)N1CCCCC1 | -5 | 11 | 1 | -27 | 3898 | 3.9 | -3
COC(C[C@H](O)[C@H](C)[C@H](O)COCc1ccccc1)OC | . | . | . | 0 | 4059 | . | -3
CCOc1ccc(CCNC(=O)CN2C(=O)CCSc3ccccc32)cc1OCC | 9 | -4 | -4 | -1 | 3826 | 3.0 | -6
CN1CCc2c(sc3c2c(=O)n(-c2ccccc2)c2nncn32)C1 | 19 | 5 | 3 | -9 | 2557 | 17 | -12
C#CCNC(=O)C1=CC(c2csc3ccccc23)CC(OCCCCO)O1 (configuration not stated) | -11 | 6 | 11 | . | . | 3.6 | .
CNC(=O)c1cc(Nc2nnc(C)c3ccccc23)ccc1OC | -3 | . | . | -23 | 3578 | -1.2 | 8
COc1nc(Nc2cccc(C)c2)nc(N2CCCCC2)n1 | -8 | 2 | 5 | -21 | 9006 | 3.3 | -2

The whole of this part, from the start:
SMILES | Sa ugtP lethal | Mtb hypoxia inh | Mtb hypoxia inh growth | PrP 5UTR inh | Autofluor counter | Sa RN4220 lethal | BJeLR viability
Cc1ccc(S(=O)(=O)N2CCOCC2)cc1NC(=O)CSc1nnc(C2CC2)n1C1CC1 | 8 | 10 | 1 | -17 | 3512 | 1.9 | .
O=C(NS(=O)(=O)c1ccc(Cl)cc1)c1ccccc1 | 2 | -3 | 3 | -9 | 4280 | 4.1 | 3
COC(=O)/C(C#N)=C/c1c(N2CCN(c3cccc(Cl)c3)CC2)nc2c(C)cccn2c1=O | -3 | -6 | 7 | 4 | 4481 | 6.7 | -2
COc1ccc(CN2C(=O)NC3(CCCc4ccccc43)C2=O)cc1F (configuration not stated) | 2 | 17 | 10 | -14 | 2934 | 4.6 | 8
COC(=O)c1ccc(NC(=O)c2cc[n+](Cc3ccccc3)cc2)cc1 | 6 | -6 | 2 | -4 | 3260 | 1.0 | 6
O=C(Nc1ccc([N+](=O)[O-])cc1)N1CCCCC1 | -5 | 11 | 1 | -27 | 3898 | 3.9 | -3
COC(C[C@H](O)[C@H](C)[C@H](O)COCc1ccccc1)OC | . | . | . | 0 | 4059 | . | -3
CCOc1ccc(CCNC(=O)CN2C(=O)CCSc3ccccc32)cc1OCC | 9 | -4 | -4 | -1 | 3826 | 3.0 | -6
CN1CCc2c(sc3c2c(=O)n(-c2ccccc2)c2nncn32)C1 | 19 | 5 | 3 | -9 | 2557 | 17 | -12
C#CCNC(=O)C1=CC(c2csc3ccccc23)CC(OCCCCO)O1 (configuration not stated) | -11 | 6 | 11 | . | . | 3.6 | .
CNC(=O)c1cc(Nc2nnc(C)c3ccccc23)ccc1OC | -3 | . | . | -23 | 3578 | -1.2 | 8
COc1nc(Nc2cccc(C)c2)nc(N2CCCCC2)n1 | -8 | 2 | 5 | -21 | 9006 | 3.3 | -2
CC(Oc1ccccc1)C(=O)N=C1SC2CS(=O)(=O)CC2N1CCc1ccccc1 (configuration not stated) | 2 | 6 | 0 | 5 | 4388 | 3.1 | 1
CC(=O)NCCc1nc2ccccc2n1CCOc1ccc(C)cc1 | 8 | 10 | 7 | -11 | 3525 | 3.0 | 2
Cc1cc(C)nc(NC2=NCC(=O)N2c2cc(Cl)cc(Cl)c2)n1 | 6 | -6 | 3 | -10 | 3177 | 8.5 | 5

Rewritten with values under each structure: entries from further up
Every second line gives: Sa ugtP lethal, Mtb hypoxia inh, Mtb hypoxia inh growth, PrP 5UTR inh, Autofluor counter, Sa RN4220 lethal, BJeLR viability
COC(=O)/C(C#N)=C/c1c(N2CCN(c3cccc(Cl)c3)CC2)nc2c(C)cccn2c1=O
 : -3, -6, 7, 4, 4481, 6.7, -2
COc1ccc(CN2C(=O)NC3(CCCc4ccccc43)C2=O)cc1F (configuration not stated)
 : 2, 17, 10, -14, 2934, 4.6, 8

Next structures:
SMILES | Sa ugtP lethal | Mtb hypoxia inh | Mtb hypoxia inh growth | PrP 5UTR inh | Autofluor counter | Sa RN4220 lethal | BJeLR viability
CC(=O)Nc1ccc(NC(=O)C2CCN(C(=O)NC3CCCCC3)CC2)cc1 | 12 | 14 | 5 | -17 | 5035 | 1.7 | 2
COCCCNC(=S)N/N=C/c1ccc2ccccc2c1 | . | . | . | -8 | 5391 | . | -10
CC(Sc1nnc(-c2ccccc2F)n1C1CC1)C(=O)N1CCCC1 (configuration not stated) | -6 | -5 | 1 | -18 | 8135 | -2.2 | .
Cc1ccc2c(c1)CC1(CN2C)C(=O)NC(=O)N(c2ccccc2C)C1=O (configuration not stated) | 1 | -1 | -3 | -24 | 4914 | 0.6 | -10
COc1ccc(-n2cc(C(=O)c3ccccc3O)cn2)cc1 | -3 | -1 | 9 | -5 | 4198 | 9.8 | 10
COc1ccccc1C(=O)NN(C)C1=NS(=O)(=O)c2ccccc21 | 3 | -2 | -2 | -26 | 3513 | 1.3 | 8
CCN(CC)CCCN(C(=O)c1ccc(Br)cc1)c1nc(-c2ccc(OC)cc2)cs1 | -18 | 9 | 13 | -19 | 4841 | -4.1 | 14
CCCC(=O)Nc1cc(-c2nn(C)c(=O)c3ccccc23)ccc1N1CCCCC1 | 3 | 10 | 7 | -6 | 16901* | 7.6 | 1
CCOc1ccc(OCC)c(NC(=O)CCNS(=O)(=O)c2cc(Br)cnc2N)c1 | 6 | 4 | 1 | -21 | 7481 | -0.4 | 2
O=C(N=C1SC2CS(=O)(=O)CC2N1CCc1ccccc1)C1CCCCC1 (configuration not stated) | -4 | 5 | 6 | -16 | 4420 | 0.3 | -1
Cc1ccc(Sc2ncccc2NC(=O)c2ccccc2Cl)cc1 | 19 | 18 | 6 | -4 | 4643 | 8.3 | 3
Cn1c(N)c(C(=O)COC(=O)Cc2c(F)cccc2Cl)c(=O)n(C)c1=O | -1 | 3 | 5 | -3 | 3418 | 10 | .
c1ccc(CC2CCN(c3nc4ccccc4n4nnnc34)CC2)cc1 | 17 | . | . | -19 | 4169 | 4.7 | 2
O=C(/C=C/c1ccco1)N1CCCC(c2ccccc2)C1 (configuration not stated) | . | . | . | -12 | 2553 | . | -10
Cc1ccc(C(=O)c2sc3nc4c(cc3c2N)CCC4)cc1 | 3 | 4 | 7 | -48 | 2076 | 2.3 | 2
Cc1nc(N2CCN(c3ccccn3)CC2)c2c(C)c(C(=O)N3CCN(c4ccccc4F)CC3)sc2n1 | -1 | -3 | -6 | -28 | 5181 | -4.4 | -8
CCCNC(=O)c1ccccc1NS(=O)(=O)c1ccc2c(c1)OCCO2 | 5 | 5 | 3 | -20 | 9090 | 4.4 | 7
Cc1cccc(NC(=S)NCCc2ccc3c(c2)OCCO3)c1C | 4 | -13 | 5 | -14 | 3371 | 10 | -6
CCN(Cc1cc2ccccc2[nH]c1=O)C(=O)c1cccnc1 | 2 | 0 | -1 | -25 | 9949 | 2.0 | -1
CC(=O)Nc1ccc(OCc2nnc(-c3ccccc3)o2)cc1 | 3 | -2 | 12 | -10 | 3799 | 2.6 | -2
COC(=O)c1cc(NC(=O)CN2CCc3cc4c(cc3C2)OCCCO4)cc(C(=O)OC)c1 | -4 | . | . | -19 | 4396 | 0.4 | 0
COC(=O)c1ccc(C23CC4(C2)[C@H](CN(CC2CCCCC2)[C@@H]4c2ccccc2)C3c2ccccc2)cc1 (some centres not stated) | . | . | . | -17 | 4834 | . | 13
CCN(C(=O)C1CCN(c2nc(-c3ccc(OC)cc3)no2)CC1)c1ccccc1 | 0 | -7 | 3 | -11 | 5986 | 1.7 | 0
Cc1ccsc1C(=O)Nc1ccc2c(c1)OCCO2 | 3 | 8 | 0 | -21 | 2172 | 6.2 | 4
O=C(CSc1cccc[n+]1[O-])Nc1ccc([N+](=O)[O-])cc1Cl | -2 | -3 | -3 | -3 | 4479 | -1.8 | 0
Cc1ccc(C(=O)CCC(=O)Nc2cc(C)ccn2)cc1 | 4 | 3 | -8 | -13 | 8351 | -0.9 | .
Cc1ccc(S(=O)(=O)NCCC(=O)N2CCC(C(N)=O)CC2)cc1C | -2 | -9 | 0 | -6 | 4179 | -1.0 | -16
CCn1cc(S(=O)(=O)Nc2ccc3c(c2)OCCO3)cn1 | 14 | 0 | 1 | 18 | 3580 | 4.7 | 13
NC(=O)c1ccccc1OC1CCC1 | 3 | 17 | 4 | 3 | 4369 | 2.3 | 3
CCCCN(CC(=O)NC(C)(C)C)C(=O)C(=O)Nc1ccc2c(c1)OCCO2 | 10 | 6 | 8 | -14 | 4231 | 0.1 | -19
CC(=O)N(CCC1(C(C)C)CCOC(C)(C)C1)Cc1ccco1 (configuration not stated) | -10 | 5 | 9 | -19 | 19564* | 5.9 | -9
COc1ccc(C(=O)NCC(=O)Nc2ccc(-c3ccccc3)cc2)cc1 | -7 | -15 | 6 | -11 | 3913 | -4.4 | -6
O=S(=O)(c1ccc(Cl)nc1)N1CCCCC1 | 2 | 9 | 2 | -14 | 5321 | 0.9 | -14
Cc1cccc(C)c1NC(=O)CCCSc1nc2ccccc2s1 | 1 | 13 | 2 | -17 | 2344 | 4.3 | -5
CCOC(=O)C(=CNc1ccc(N2CCCCC2)c(S(=O)(=O)Nc2ccccc2OC)c1)C(=O)OCC | 4 | 3 | -3 | -21 | 3674 | 3.5 | .
COc1ccc(N(CC(=O)Nc2ccccc2C(F)(F)F)C2=NC3CS(=O)(=O)CC3S2)cc1 (configuration not stated) | -2 | 5 | 5 | -14 | 5370 | -9.5 | -1
COC(=O)c1ccc(CNC(=O)CSC(C)C(=O)Nc2cc(C)on2)cc1 (configuration not stated) | 3 | 0 | 4 | -45 | 8334 | 2.5 | .
Cc1cc(C)c(C#N)c(Cl)n1 | 10 | 6 | 0 | -48 | 2619 | 3.8 | 8
O=C(c1cccc(S(=O)(=O)N2CCOCC2)c1)N(CCc1ccccc1)Cc1ccccc1 | -1 | 11 | 1 | -14 | 3610 | 3.1 | .
Cn1c2c(c(=O)n(C)c1=O)C(C(F)(F)F)(C(F)(F)F)N=C(CCC1CCCCC1)N2 | 11 | 1 | 9 | -15 | 2108 | 6.9 | 9
CCc1cccc(OCCCn2ccnc2)c1 | -1 | 10 | 10 | -9 | 2517 | 7.6 | -2
O=C(NCc1nc2ccccc2[nH]1)C1=C[C@@H](C2CC2)C[C@@H](OCc2ccc(CO)cc2)O1 | . | . | . | -12 | 2859 | . | -4
CCCn1c2c(c(O)c(C(=O)NCc3ccccc3)c1=O)CCCC2 | 38 | 14 | 12 | -7 | 2495 | -8.1 | 4
O=C(CCc1nc2ccccc2s1)N1CCN(c2ccccc2)CC1 | 1 | 1 | -3 | -20 | 3880 | -1.3 | -11
O=C(NN=Cc1c(F)c(F)c(F)c(F)c1F)c1ccc(Cn2cc(Br)cn2)o1 | -7 | . | . | . | . | 5.0 | .
NC(=O)C1CC2(CC(c3cccc(NC(=O)COc4ccc(Cl)cc4)c3)=NO2)CN1C(=O)C1CCC(=O)N1 (configuration not stated) | -3 | 1 | -1 | . | . | -0.1 | .
Cc1ccc(C(C)(C)C)c(OCCCn2ccnc2)c1 | 2 | . | . | -19 | 2610 | 2.7 | -4
CC(=O)OCCCNc1cc(Sc2ccc(Cl)cc2)c2nonc2c1[N+](=O)[O-] | 49 | 8 | 6 | -31 | 2004 | 26 | 2
CCCOc1ccc(CNC(=O)c2ccc3nc(N4CCOCC4)sc3c2)cc1 | 13 | 1 | 7 | -22 | 14448 | 1.2 | -7
CS(=O)(=O)N1CCC(C(=O)Nc2ccc(C(F)(F)F)cc2)CC1 | -1 | -3 | 16 | -5 | 4785 | -0.3 | -2
Cc1cnn(-c2cc(Oc3ccccc3)ncn2)c1 | 13 | 5 | 1 | -48 | 3389 | 3.0 | 2
CCC(C)C(=O)N1CCCC(c2nc(-c3cccs3)no2)C1 (configuration not stated) | 4 | . | . | -41 | 4485 | -1.1 | 8
